Compound activity (PubChem BioAssay)
Rango complex inh: prevents formation of the Rango-importin beta complex; 340,000 compounds, 0.031% hits; Q14974; Rango CFP/YFP FRET sensor + importin beta, 45 min; Potency, µM (titrated, usually from 92.2 µM), inactives show at the highest dose inhibition of complex formation; AID 540263; active = rising FRET ratio curve, often small or poorly fitted; inconclusive = mostly compound fluorescence or quenching in the first reads; inactive = flat curves in all reads;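 further: potency means the concentration at half of the fitted maximal effect; 0% = DMSO wells and 100% = buffer wells lacking importin beta; nearly all actives have a fitted effect of over 15% in size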
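FRET biosensor (snurportin 1 IBB flanked by EYFP and cerulean), 50 nM, with compound 5 min, then 0.125 microM importin beta in PBS, 1 mM DTT, 0.02% Tween-20, 0.1% BSA. CFP/YFP ratio read after 45 min at room temperature; pre-read flags interference.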
miR-21 FLuc: raises the signal of a miR-21 reporter. HeLa miR-21 FLuc reporter, luciferase, 48 h. Potency, µM (highest dose often 38.3 µM), for inactives: at the top dose reporter change, positive = more light. 340,000 tested, under 10 active; active = well fitted rising curve with a large enough effect; inconclusive = small, poorly fitted or top-dose-only effect; inactive = no such curve, though single readings can be large or run the other way;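 further: % of control where 0% means no effect; miR-21 action dims this reporter so a rising signal means less miR-21 action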
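Luminescence from a firefly luciferase reporter carrying a miR-21 binding site downstream, stably expressed under a CMV promoter in HeLa cells that make miR-21 endogenously, reports miRNA modulation after 48 h compound exposure up to approximately 40uM final.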
Rango dissoc inh: prevents RanGTP from dissociating the Rango-importin beta complex; O95149+P62826; Biochemical FRET Rango-importin beta, RanGTP-induced dissociation; Potency, µM (series often up to 46.1 µM), for the others: at the highest dose activity change, negative = inhibition; 340,000 compounds, 0.071% hits; AID 540253; active means falling FRET ratio curve, often poorly fitted, with flat reads before Ran was added; inconclusive means other falling curves, or compound fluorescence or quenching; inactive means flat or rising ratio curve;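 further: potency means the concentration at half of the fitted maximal effect; % of control where 0% means no effect; nearly all actives have a fitted effect of over 45% in size; -100% = wells without RanGTP and RCC1; the record marks most hits as doubtful in a second field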
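Quantitative HTS using a FRET biosensor: 0.1 uM Rango, 0.25 uM importin beta, 0.6 uM Ran, 2 mM GTP, 0.2 uM RCC1 final, PBS with DTT, Tween-20 and BSA. Post-read taken 45 min after Ran addition.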
GLA inh pH 4.5: alpha-galactosidase A (human) inhibition, pH 4.5; purified enzyme, 4-MU-alpha-Gal fluorescence, pH 4.5; activity change, negative = inhibition, % at 105 µM; 230,000 tested, under 10 active; AID 1467; inconclusive = small, poorly fitted or top-dose-only inhibition, or a rising curve; inactive = flat fitted curve, though single readings scatter; no compound was filed as active;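 further: 0% = full activity with enzyme and -100% = basal without enzyme; dose as in the result columns while the protocol names 77 µM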
Target sequence (P06280 whole entry, looked up): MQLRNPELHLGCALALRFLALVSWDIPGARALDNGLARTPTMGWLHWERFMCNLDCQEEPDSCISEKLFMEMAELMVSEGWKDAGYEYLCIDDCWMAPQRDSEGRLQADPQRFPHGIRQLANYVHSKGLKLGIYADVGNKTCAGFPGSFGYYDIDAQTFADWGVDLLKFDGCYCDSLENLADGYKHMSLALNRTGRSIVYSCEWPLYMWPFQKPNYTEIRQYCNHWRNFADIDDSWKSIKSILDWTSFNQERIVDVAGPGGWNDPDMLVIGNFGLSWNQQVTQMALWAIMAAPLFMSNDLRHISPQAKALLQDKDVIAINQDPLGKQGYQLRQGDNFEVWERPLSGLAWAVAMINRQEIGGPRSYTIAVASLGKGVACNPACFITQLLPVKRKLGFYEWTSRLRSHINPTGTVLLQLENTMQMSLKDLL
Numbers without * were called inactive; ? = inconclusive; nt = not tested or not shown; & = joins results of further samples. An excerpt. The share of hits here may be higher or lower than overall.

SMILES	Rango complex inh	miR-21 FLuc	Rango dissoc inh	GLA inh pH 4.5
O=C(CC(c1ccccc1)c1ccccc1O)N1CCCCC1 (stereo unspecified)	-2.4%	3.3%	9.3%	nt
O=C(CN1CCOCC1)Nc1ccc2c(c1)OCCO2	0.7%	-26.8%	25.9%	-5.1
Nc1nc(-c2cccs2)c(CC(=O)O)s1	4.0%	1.7%	0.1%	-8.0
Cc1cc(C(=O)COC(=O)c2cccc(S(=O)(=O)N(C)C)c2)c(C)n1CC1CCCO1 (stereo unspecified)	-1.4%	nt	-0.3%	nt
OCc1ccccc1O[C@@H]1O[C@H](CO)[C@@H](O)[C@H](O)[C@H]1O	-0.1%	-0.6%	16.5%	-2.7
COc1ccc(OCC(=O)N(C)Cc2ccccc2)cc1	0.8%	-19.7%	2.2%	1.4
O=C(O)c1cc(-c2ccc(-c3c(-c4ccc5c(c4)OCO5)noc3-c3ccsc3)cc2)nc2ccccc12	-4.1%	-53.0%	-0.8%	nt
CCNc1nc(NC(C)C)nc(N(C#N)CC(=O)OC)n1	-0.6%	-0.6%	1.4%	-0.9

(cont.)
SMILES	Rango complex inh	miR-21 FLuc	Rango dissoc inh	GLA inh pH 4.5
COc1ccc2nc(SCC(=O)N3CCCCC3)c(C#N)cc2c1	?	-3.9%	-20.1%	3.6
Fc1ccccc1C1c2cccn2CCN1C(=S)Nc1cccc(Br)c1 (stereo unspecified)	-1.0%	7.9%	17.6%	-5.2
Clc1ccc(CSc2nnc(-c3ccncc3)o2)c(Cl)c1	0.4%	0.0%	1.7%	4.6
COc1ccc(CNC(=O)C2CCN(S(=O)(=O)c3ccc4nc5c(c(C(=O)O)c4c3)CC(C)CC5)CC2)cc1 (stereo unspecified)	-2.2%	-2.0%&2.1%	-8.9%	nt
Cc1ccc(N=Cc2nc(/C=C/c3cccc([N+](=O)[O-])c3)oc2O)cc1	?	-2.7%	?	-1.3
O=C(O)c1ccc(CSc2n[nH]c(-c3ccco3)n2)cc1	-0.5%	-3.7%	9.2%	5.0
Cc1csc(NC(=O)C2CCN(S(=O)(=O)c3ccc4c(c3)oc(=O)n4C)CC2)n1	-2.5%	1.8%	-5.8%	1.9
CCc1nc2oc3ccccc3c(=O)c2c(=O)n1-c1ccc(C)cc1	?	-67.8%	0.4%	-1.1

(listing goes on)
SMILES	Rango complex inh	miR-21 FLuc	Rango dissoc inh	GLA inh pH 4.5
O=C(Oc1c(-c2ccccc2)c(=O)n2c3c(cccc13)CC2)c1cccc([N+](=O)[O-])c1	-1.8%	4.9%	1.1%	3.2
CCc1ccc(-c2nn(-c3ccccc3C)cc2C(=O)N2CCN(C3CCS(=O)(=O)C3)CC2)cc1 (stereo unspecified)	?	nt	-1.3%	nt
COc1ccc(-c2cc(C(F)(F)F)n3nc(C(=O)N4CCCC4)cc3n2)cc1	-0.6%	-3.0%	2.5%	0.2
CCCc1cc(NCc2ccccn2)n2c(nc3ccccc32)c1C#N	?	6.9%	-14.0%	22.6
O=C(NC12CC3CC(CC(C3)C1)C2)c1cc2nc(-c3ccco3)cc(C(F)(F)F)n2n1	?	-2.8%	-28.5%	15.8
COc1cc2c(cc1OC)-c1cc(N3CCCCCC3)nc(=O)n1CC2	4.3%	-30.1%	-8.3%	22.1
Cc1cc(NS(=O)(=O)c2ccc(NC(=O)Nc3ccccc3)cc2)no1	-0.5%	-4.7%	8.0%	0.3
CN(CCc1ccccc1)C(=O)c1ccc(NC(=O)Cc2ccc(NC(=O)C3CCCN(C(=O)C4CCCC4)C3)cc2)cc1 (stereo unspecified)	0.4%	nt	11.0%	nt

Further results
SMILES	Rango complex inh	miR-21 FLuc	Rango dissoc inh	GLA inh pH 4.5
Cc1ccc(C2=NN(C(=O)CCCC(=O)O)C(c3ccc4c(c3)OCO4)C2)cc1 (stereo unspecified)	-0.1%	-14.9%	15.3%	nt
Cc1cc(=O)[nH]c2c1c(C)nn2C1CCOC(C)(C)C1 (stereo unspecified)	-5.6%	-2.4%	-0.4%	-1.2
CCOC(=O)C1CCN(C(=O)CNC(=O)Cn2c(C)cc3ccccc3c2=O)CC1	-5.2%	4.4%	27.7%	nt
CCC1CCCCN1C(=O)c1nn2cccnc2c1Cl (stereo unspecified)	-4.4%	-6.7%	0.2%	9.9
CCC1(O)CC(c2ccccc2)=NN1C(=O)c1ccccc1F (stereo unspecified)	-1.5%	nt	-9.2%	nt
CCN(CC)CCN(Cc1cc2cc3c(cc2[nH]c1=O)OCO3)C(=S)NCCCN(C)C	-1.7%	1.0%	0.3%	nt
CC(=O)c1ccc(NC(=O)COc2ccccc2C(=O)Nc2ccc(C)cn2)cc1	1.3%	-7.0%	-6.3%	8.2
O=C(NNS(=O)(=O)c1ccc(Cl)cc1)c1cc(-c2ccccc2)nc2ccccc12	0.9%	-0.2%	-6.8%	-12.4

The listing continues:
SMILES	Rango complex inh	miR-21 FLuc	Rango dissoc inh	GLA inh pH 4.5
CS(=O)(=O)N1CCC(C(=O)Nc2cc(Cl)ccc2Cl)CC1	0.3%	-3.5%	0.3%	-6.3
O=C1[C@@H]2[C@@H]3C[C@@H]([C@H]4ON=C(c5ccc(Cl)cc5)[C@@H]34)[C@@H]2C(=O)N1C1CCCCC1	-4.9%	-2.5%	22.1%	-0.5
Cc1cnc2ncc3sccc3c2c1	1.4%	-3.3%	-3.6%	1.6
COc1cccc(Nc2ncnc3ccccc23)c1	-3.5%	-64.7%	2.5%	1.0
O=C(c1cc(-c2ccc3c(c2)OCO3)on1)N1CCN(c2ccccc2)CC1	2.4%	-53.0%	-5.8%	0.7
CN(C(=O)c1cccc(NC(=O)Cc2ccc([N+](=O)[O-])cc2)c1)C1CCC1	-4.7%	nt	16.5%	nt
Nc1cccc(-n2cccc2)c1	5.1%	-6.5%	8.4%	-1.0
CC(=O)c1ccc(OCC(=O)N2CCCC2c2ccc3c(c2)OCCCO3)cc1 (stereo unspecified)	1.2%	nt	-13.4%	nt

The listing continues:
SMILES	Rango complex inh	miR-21 FLuc	Rango dissoc inh	GLA inh pH 4.5
COc1ccc(C2C(C#N)=C(N)Oc3n[nH]c(C)c32)cc1Cn1nc(C)c([N+](=O)[O-])c1C (stereo unspecified)	1.5%	-3.7%	1.7%	1.1
O=C(Nc1cccc(O)c1)c1ccc2c(c1)C(=O)N(Cc1ccco1)C2=O	3.4%	1.9%	0.5%	nt
COc1ccc(Sc2ccc(-c3nc4cnccn4c3NC3CCCCC3)cc2OC)cc1	?	nt	?	nt
O=C(Oc1ccc(/C=N/NC(=O)c2ccccn2)cc1)c1cccc(F)c1	1.3%	nt	0.3%	nt
Nn1c(SCC(=O)NCCC2=CCCCC2)nnc1C1CCCCC1	-0.5%	-5.9%	12.3%	-4.7
CCOc1ccc(-c2noc(-c3ccncc3)n2)cc1OCC	0.0%	-6.2%	-10.0%	-2.1
CC(=O)Nc1ccc(NC(=O)C(C)OC(=O)c2ccc3c(c2)OCCO3)cc1 (stereo unspecified)	2.9%	-0.8%	2.3%	2.3
COc1cc(C(c2nnnn2C(C)(C)C)N2CCN(C)CC2)cc(OC)c1OC (stereo unspecified)	-0.3%	-5.3%	-2.1%	6.8

Other results follow.
SMILES	Rango complex inh	miR-21 FLuc	Rango dissoc inh	GLA inh pH 4.5
O=C(CN1CCN(Cc2ccccc2)CC1)Nc1nnc(C(F)(F)F)s1	-0.4%	1.0%	6.1%	nt
Cc1c(Cl)c(C(=O)NC2CCCC2)nn1C	-0.1%	0.5%	2.0%	-11.6
Cc1cc(C(=O)N/N=C/c2cc([N+](=O)[O-])ccc2O)c2ccccc2n1	?	28.0%	-28.6%	-2.8
Cc1ccc(O)c(N=Nc2ccc(S(=O)(=O)N3CCCC3)cc2)c1	-0.7%	-18.8%	16.7%	2.1
Cn1nc(C(=O)OCC(=O)Nc2ccc(S(N)(=O)=O)cc2)c2ccccc2c1=O	-1.3%	-10.7%	8.0%	3.1
COc1cc(/C=N/NC(=O)c2cccs2)ccc1O	-4.9%	-65.2%	-19.1%	-5.7
CCOc1ccc(N(CC(=O)NCCSCc2ccco2)S(=O)(=O)c2ccc(C)cc2)cc1	-0.6%	2.7%	0.2%	nt
O=C(CSC1CCCCC1)N1CCN(c2ccccc2)CC1	-0.6%	-19.5%	-8.9%	-1.5

Further results
SMILES	Rango complex inh	miR-21 FLuc	Rango dissoc inh	GLA inh pH 4.5
O=C(NC1CCCC1)c1ccc(S(=O)(=O)N2CCCC2)cc1	6.8%	-2.0%	-4.7%	1.7
COc1cccc(/C=C2\CCc3ccccc3C2=O)c1	1.6%	18.6%	2.5%	-10.9
O=C(O)CCc1ccc(S(=O)(=O)Nc2ccccc2N2CCCCC2)cc1	-2.0%	nt	-2.0%	nt
Cc1cc(C)n2nc(SCC(=O)N3CCCCC3C)nc2n1 (stereo unspecified)	0.2%	nt	14.4%	nt
O=c1cn[nH]c2ccccc12	-4.2%	1.1%	0.4%	-7.6
O=C(NCc1ccccn1)c1ccc(NS(=O)(=O)c2ccccc2)cc1	-0.1%	-19.6%	5.2%	nt
C/C=C\C(=O)Nc1cccc(C2=NOC3(C2)C[C@H](C(N)=O)N(C(=O)[C@H]2CCC(=O)N2)C3)c1 (stereo partly specified)	-0.5%	0.2%	-9.9%	3.0
Cc1sc2nc(SCC(=O)N3CCCCC3)[nH]c(=O)c2c1C	?	-7.0%	?	-1.4

(more compounds)
SMILES	Rango complex inh	miR-21 FLuc	Rango dissoc inh	GLA inh pH 4.5
CCN(c1ccc(OC)cc1)S(=O)(=O)c1csc(C(N)=O)c1	0.8%	-4.1%	9.8%	nt
C=CCn1c(O)c(N=NC(=O)CNC(=O)c2cccs2)c2ccccc21	0.1%	-2.5%	11.6%	-8.1
CC(C)OC(=O)CSc1nnc(-c2ccccn2)n1N	2.6%	-1.5%	0.3%	1.3
CCCN(CCC)S(=O)(=O)c1ccc(C(=O)Nc2cccnc2)cc1	-0.1%	4.2%	5.4%	nt
C=CCn1c(SCC(N)=O)nc2sc3c(c2c1=O)CCC3	-3.5%	-6.1%	-13.8%	nt
CC(C)C(=O)N1CCN(c2ccc(NC(=O)c3cccs3)cc2)CC1	3.5%	-8.1%	21.4%	2.6
Cc1cccc(-n2ncc3c(N4CCCC4)ncnc32)c1	0.1%	-54.2%	10.3%	2.3
COc1cc(C2C(C#N)=C(N)OC3=C2C(=O)CC(C)(C)C3)cc2c1OCO2 (stereo unspecified)	?	nt	1.2%	nt

Full records as entered above.
Profile of CC(C)C(=O)N1CCN(c2ccc(NC(=O)c3cccs3)cc2)CC1 : Rango complex inh = 3.5%; miR-21 FLuc = -8.1%; Rango dissoc inh = 21.4%; GLA inh pH 4.5 = 2.6
Profile of CCCN(CCC)S(=O)(=O)c1ccc(C(=O)Nc2cccnc2)cc1 : Rango complex inh = -0.1%; miR-21 FLuc = 4.2%; Rango dissoc inh = 5.4%; GLA inh pH 4.5 = nt

Continuation.
SMILES	Rango complex inh	miR-21 FLuc	Rango dissoc inh	GLA inh pH 4.5
CC(C)(C)c1ccc(C(=O)Nc2cccc([N+](=O)[O-])c2)cc1	3.3%	20.6%	-3.9%	0.7
O=C(c1nc2ccc(Cl)cn2c1CN1CCCC(CO)C1)N1CCc2ccccc2C1 (stereo unspecified)	-1.2%	-7.4%	-2.4%	nt
CCn1c(SCc2ccc(C(=O)O)cc2)nnc1-c1ccc(Cl)cc1	-4.0%	-3.7%	9.9%	nt
Cc1ccc(-c2nnc(SCC(=O)Nc3cccnc3Cl)n2N)cc1	7.8%	nt	13.5%	nt
O=C(O)COc1ccc(Oc2ccccc2)cc1	?	-0.3%	6.5%	-3.5
Cc1cc(=O)oc2cc(N3C(=O)CC(Cc4ccccc4)C3=O)ccc12 (stereo unspecified)	-3.5%	-2.2%	-4.2%	11.3
CCc1cccc(C)c1NC(=O)CN(C)Cc1ccc(Br)cc1	9.9%	25.5%	-1.2%	-20.9
COc1cc(/C=C(\C#N)c2ccccn2)ccc1OCC(=O)Nc1cccc(C(F)(F)F)c1	-0.4%	-3.9%	27.4%	13.5
COc1cc(C(=O)OC(C)C(=O)NC(=O)NC2CCCCC2)ccc1OC(F)F (stereo unspecified)	-1.3%	nt	-12.0%	nt
